AID923 – qHTS Assay for Allosteric/Competitive Inhibitors of Caspase-1: Spectroscopic Profiling in AFC Spectral Region; hit rate 1.1% among 75,000; Potency, µM (highest dose often 57.5 µM), for inactives: at the highest dose fluorescence increase, most hits filed as activators; AID 923, 2007; compound fluorescence, AFC spectral region (405/520 nm); almost no hit is shown here; active = well fitted activation curve with a large enough effect; inconclusive = small, poorly fitted or top-dose-only effect;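 also: potency is read from the fitted curve at half-maximal effect; 0% is about no effect; scaled to a free AFC standard on each plate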
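Titrations up to 57 uM read every 20 sec for 3 min (405/520 nm) with 50 nM caspase 1 and 5 uM Ac-WEHD-AFC, pH 7.5 HEPES buffer. Fluorescence-vs-time intercept gave baseline, scaled against on-plate AFC standard.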
TSHR ag – qHTS Assay for Agonists of the Thyroid Stimulating Hormone Receptor. HEK293-CNG-TSHR cells (CNG channel as cAMP sensor), membrane potential dye, cAMP. Potency, µM (series often up to 57.1 µM), without a hit: at the top dose activation, actives largely listed as activators. hit rate 0.48% among 73,000; active = well fitted activation curve of enough size with the parental cells flat; inconclusive = any curve in the parental cells; inactive = parental cells flat and receptor cells flat or falling; also: potency is read from the fitted curve at half-maximal effect; % of control where 0% means no effect; weak receptor curves with flat parental cells got no call and are not listed
Target sequence (P16473 whole entry, looked up): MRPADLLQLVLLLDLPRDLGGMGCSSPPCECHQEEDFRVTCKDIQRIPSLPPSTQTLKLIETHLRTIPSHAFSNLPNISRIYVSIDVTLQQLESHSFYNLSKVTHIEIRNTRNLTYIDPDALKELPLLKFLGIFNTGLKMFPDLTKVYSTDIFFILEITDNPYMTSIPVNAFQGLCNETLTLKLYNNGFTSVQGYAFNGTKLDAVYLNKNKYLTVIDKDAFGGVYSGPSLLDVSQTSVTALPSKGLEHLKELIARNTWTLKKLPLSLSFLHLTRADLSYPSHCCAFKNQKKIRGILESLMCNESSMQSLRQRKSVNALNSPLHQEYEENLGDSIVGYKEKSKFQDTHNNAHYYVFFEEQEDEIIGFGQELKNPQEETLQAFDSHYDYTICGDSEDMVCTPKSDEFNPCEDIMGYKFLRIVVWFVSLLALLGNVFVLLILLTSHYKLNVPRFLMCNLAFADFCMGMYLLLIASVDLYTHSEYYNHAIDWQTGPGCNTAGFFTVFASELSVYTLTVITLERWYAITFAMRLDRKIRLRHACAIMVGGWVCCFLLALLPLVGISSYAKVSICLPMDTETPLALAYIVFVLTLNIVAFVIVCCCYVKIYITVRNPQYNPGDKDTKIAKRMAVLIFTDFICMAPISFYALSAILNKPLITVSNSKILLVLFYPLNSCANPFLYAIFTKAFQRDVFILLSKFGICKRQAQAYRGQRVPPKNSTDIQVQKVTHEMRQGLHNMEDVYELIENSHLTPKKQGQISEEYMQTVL
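cAMP rise detected as CNG-channel membrane depolarization by fluorescent dye (emission 590 nm), 30 min after compound, following 60 min dye loading containing 100 uM RO 20-1724 at room temperature. Cells: TSHR/CNG HEK 293, with parental CNG HEK 293 as control.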
A647 fluor – qHTS Assay for Spectroscopic Profiling in A647 Spectral Region; 59,000 tested, under 10 active; Compound fluorescence, A647 channel (570/671 nm), Tris buffer; AID 592, 2007; max dye-equivalent concentration, M; active means above 1 µM dye equivalent; inconclusive means 0.1 to 1 µM; inactive means 0.1 µM or less;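 also: values scaled relative to a standard on each plate; highest value over a series up to 38 µM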
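Tris 100 mM pH 8.0; cpd + A647 stds pin-transferred; 15 min RT; CCD imager, ex 570/em 671. Output = A647-equivalent conc. per cpd conc.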
A488 autofl – qHTS Assay for Spectroscopic Profiling in A488 Spectral Region | AID 591, 2007 | hit rate 0.1% among 59,000 | max dye equivalency, M | compound autofluorescence, A488 spectral region, dye equivalency; stronger effect = higher value; active = above 10 nM dye equivalent; inconclusive = 1 to 10 nM; inactive = 1 nM or less; about half of its hits are not listed in these tables;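 also: highest value over a series up to 38 µM; compound alone in buffer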
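Readout is A488 dye-equivalent concentration, calibrated by a per-plate six-point Alexa 488 series. Compounds in 100 mM Tris buffer pH 8.0 were incubated 15 min at room temperature. Plates were imaged using 480 nm excitation/540 nm emission filters.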
Resorufin autofl – qHTS Assay for Spectroscopic Profiling in Resorufin Spectral Region; Compound fluorescence, resorufin region 547/598 nm, buffer; stronger effect = higher value; hit rate 0.04% among 59,000; max dye-equivalent concentration, M; active = above 10 nM dye equivalent; inconclusive = 1 to 10 nM; inactive = 1 nM or less; a few of its hits are not listed in these tables; also: highest value over a series up to 38 µM
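Compounds in 100 mM Tris buffer, pH 8.0, incubated 15 min at room temperature, then read with 547 nm excitation and 598 nm emission filters. Fluorescence was converted to dye-equivalent concentration using an on-plate six-point resorufin standard curve.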
* = called active by the depositor; i = inactive; ? = inconclusive; . = no result given; [ ] = remark or other dose. This is a subset. The share of hits here may be higher or lower than overall.

Each structure is followed by: AID923 | TSHR ag | A647 fluor | A488 autofl | Resorufin autofl
Cc1c(C(C)O)nnn1-c1nonc1N (configuration not stated)
 : 0.4% | -1.1% | 1e-09 | i | i
COc1cc(OC)c(OC)cc1CNC1CCCCCC1
 : -1.7% | 21.6% | 1e-09 | i | i
C[C@@H](C[C@H](N)C(=O)O)C(=O)O
 : 3.6%[11.5 µM] | 3.4%[11.4 µM] | 1.1e-09 | i | i
O=C(O)C1(P(=O)(c2ccccc2)c2ccccc2)CCC1
 : 3.2% | -0.7%[11.4 µM] | . | . | .
Cc1nc2cc(C(=O)O)ccc2s1
 : -1.1% | 3.9% | 2.19e-08 | i | i
Nc1nonc1C(=O)NCCNC(=O)c1ccccc1F
 : 0.7% | 2.8% | 2.83e-08 | i | i
C(=N\n1cnnc1)/c1ccc(-c2ccccc2)cc1
 : -0.9% | 9.1% | . | . | .
O=C(c1cc(-c2cccnc2)nc2ccc(Br)cc12)N1CCN(c2ncccn2)CC1
 : 2.4% | . | 6.4e-09 | i | i
CCCCOC(=O)Nc1ccccc1C(N)=O
 : 2.6% | -18.0% | . | . | .
O=C(Oc1ccc2c(=O)c(Cl)coc2c1)c1ccncc1
 : 9.1% | 0.2% | 1e-09 | i | i
Cc1ccc2oc(=O)c3cnn(CC(=O)NC4CCN(Cc5ccccc5)CC4)c3c2c1
 : 1.0% | ? | . | . | .
Cc1nn(Cc2ccc(Cl)cc2)c(C)c1NC(=O)c1cc(-c2ccco2)on1
 : 0.8% | 19.3% | 2.55e-08 | i | i
Cc1nc2cnc(N3CCN(C)CC3)nc2n(C)c1=O
 : 13.4% | 2.7% | 1e-09 | i | i
CCC1CCCCN1Cc1ccc(CNS(=O)(=O)c2ccc3c(c2)oc(=O)n3C)o1 (configuration not stated)
 : 2.2% | 6.7% | 1.7e-09 | i | i
Nc1nnc(SCc2ccccc2F)n1-c1ccccc1
 : 2.8% | -1.6% | 1.97e-08 | i | i
CC(CC(=O)c1cccs1)CC(=O)c1cccs1
 : 1.8% | 2.0% | . | . | .
COC(=O)c1[nH]c2ccccc2c1NC(=O)CN1CCCc2ccccc21
 : 2.5% | 0.6% | 1e-09 | i | i
CCOc1ccccc1N1CCN(CC(O)COc2ccc3c(C)cc(=O)oc3c2)CC1 (configuration not stated)
 : -0.2% | ? | 1.3e-09 | i | i
CN(c1cccc(NC(=O)CN2C(=O)c3ccccc3S2(=O)=O)c1)S(C)(=O)=O
 : -0.7% | -7.1% | 5.4e-09 | i | i
O=C(Nc1ncccc1Cl)c1cccc(F)c1
 : . | . | 9.47e-08 | i | i
CCOC(=O)CSc1nnc(CNC(=O)c2ccc(OC)cc2OC)n1-c1ccc(OC)cc1
 : 0.3% | 14.4% | 6.3e-09 | i | i
O=C1CCc2c(ccc3ccccc23)O1
 : 3.0% | 8.2% | . | . | .
Cc1ccc(NC(=O)CCn2cnc3ccccc3c2=O)cc1Cl
 : 2.0% | 2.2% | 7.7e-09 | i | i
CC1(C)Cc2noc(N)c2C(C)(C)N1OC(=O)c1cccs1
 : 0.4% | ? | 3.6e-09 | i | i
COc1nc(NCc2ccco2)nc(N2CCC(C)CC2)n1
 : -0.7% | ? | 2.28e-08 | i | i
O=C(C1CCC(CNc2c(N3CCCCC3)c(=O)c2=O)CC1)N1CCCCC1 (configuration not stated)
 : -1.2% | ? | . | . | .
CC1=NN(c2ccc(S(=O)(=O)O)cc2)C(=O)/C1=C\c1ccc(Cl)cc1
 : -1.8%[11.5 µM] | -2.0%[11.4 µM] | 1e-09 | i | i
Cc1cc(C(=O)c2cccs2)c(N)s1
 : 2.5% | -2.9% | 2.16e-08 | i | i
CCOC(=O)C1CCN(C(=O)c2cn(CCOC)c(=O)c3c2c2ccccc2n3C)CC1
 : 0.1% | 5.5% | 1e-09 | i | i
Cc1ccc(C(=O)C2=C(O)C(=O)N(c3ncccn3)C2c2cccc(Cl)c2)o1 (configuration not stated)
 : . | . | 1e-09 | i | i
Cc1cccc(CSc2nnc(-c3ccco3)n2C)c1
 : 1.7% | 14.2% | 1e-09 | i | i
CCOC(=O)C1=C(c2ccccc2)OC(N)=C(C#N)C1c1ccco1 (configuration not stated)
 : 3.2% | 16.1% | 1e-09 | i | i
CN1CC(=O)NC1=NC(=O)c1ccc(Cl)c(S(=O)(=O)N2CCCCCC2)c1
 : -0.8% | 4.4% | 2.24e-08 | i | i
Cc1ccc(-n2nnc3c(=O)n(CC(=O)N4CCOCC4)cnc32)cc1
 : -2.0% | ? | . | . | .
Cn1c(=O)c2c(nc(SCc3ccccn3)n2C)n(C)c1=O
 : 0.1% | 3.8% | 1e-09 | i | i
CC(C)CN(C(=O)COC(=O)CCN1C(=O)c2ccccc2C1=O)C1CCS(=O)(=O)C1 (configuration not stated)
 : -1.4% | 0.1% | 1e-09 | i | i
CO[C@@H]1CC[C@@]2(C)[C@@H](CC[C@@]3(C)[C@H]2CC=C2[C@H]4CC(C)(C)[C@H](O)[C@@H](OC(C)=O)[C@]4(CO)[C@H](O)C[C@]23C)[C@@]1(C)CO (tested in a mixture with another compound)
 : 1.8%[25.7 µM] | 15.8µM* | 1e-09 | i | i
N#Cc1nc(-c2ccc(OCc3ccccc3)cc2)oc1NCc1cccnc1
 : -0.6% | 25.0% | 2.29e-08 | i | i
CC(=O)Nc1cccc2c1[n+]([O-])c(C)c(C)[n+]2[O-]
 : -0.2% | 4.7% | 1.01e-08 | i | i
CCN=C1SC(CC(=O)Nc2ccccc2OCC)C(=O)N1CC (configuration not stated)
 : 0.1% | 0.1% | 1.91e-08 | i | i

Among those listed so far, these contain a cyano group.
Each structure is followed by: AID923 | TSHR ag | A647 fluor | A488 autofl | Resorufin autofl
CCOC(=O)C1=C(c2ccccc2)OC(N)=C(C#N)C1c1ccco1 (configuration not stated)
 : 3.2% | 16.1% | 1e-09 | i | i
N#Cc1nc(-c2ccc(OCc3ccccc3)cc2)oc1NCc1cccnc1
 : -0.6% | 25.0% | 2.29e-08 | i | i

(cont.)
Each structure is followed by: AID923 | TSHR ag | A647 fluor | A488 autofl | Resorufin autofl
c1ccc2nc3c(nc2c1)c1ccccc1n3CCN1CCOCC1
 : 5.1% | 15.8µM* | 6.6e-09 | i | i
CCOC(=O)c1cc(C)n(-c2ccc(OC)c(OC)c2)c1C
 : . | . | 1e-09 | i | i
COc1ccc(OC)c(N/C(C)=C/C(=O)c2ccc(C)o2)c1
 : -0.5% | 0.8% | 5.1e-09 | i | i
COc1ccc(-c2nc(CS(=O)CC(=O)NCCCN3CC(C)CC(C)C3)c(C)o2)cc1OC (configuration not stated)
 : 0.2% | 5.2% | 1.52e-08 | i | i
Cn1cccc1C(=O)N1CCC[C@@]2(CCN(c3cccc(-c4ccccc4)c3)C2)C1
 : 2.6% | 13.4% | 1.3e-08 | i | i
Cc1cc(C)n(C(C)n2nc(C)cc2C)n1
 : -0.6% | 2.5% | 6.2e-09 | i | i
CCN1CCc2c(sc(NC(=O)c3ccc(S(=O)(=O)N4CCOCC4)cc3)c2C(=O)OC)C1
 : -0.3% | -11.5% | 6.6e-09 | i | i
Cn1c(=O)c2c(nc(CN3CCN(C(=O)c4ccco4)CC3)n2Cc2ccc(F)cc2)n(C)c1=O
 : -0.2% | 2.0% | 1.46e-08 | i | i
COc1cccc(-c2nc(-c3ccc(NC(=O)Cc4ccccc4OC)cc3)no2)c1
 : 0.3% | 6.0% | 1e-09 | i | i
CCOC(=O)c1ccc(NC(=O)N2CC(C)OC(C)C2)cc1 (configuration not stated)
 : -0.5% | -2.8% | 6e-09 | i | i
CCC(=O)N1CCc2cc(S(=O)(=O)CCC(=O)N3CCc4ccccc4C3)ccc21
 : 1.1% | 6.8% | 1e-09 | i | i
COc1ccc(S(=O)(=O)NC(CC(=O)NCc2ccc3c(c2)OCO3)c2ccco2)cc1 (configuration not stated)
 : -0.2% | 10.8% | 2.6e-08 | i | i
CCc1c(O)nc(SCC(=O)Nc2ccccc2OC)[nH]c1=O
 : 2.4% | 10.0%[11.4 µM] | . | . | .
C=C(c1cccc2ccccc12)P(=O)(O)O
 : -0.6% | 10.2% | 1.06e-08 | i | i
CCCCCOC(=O)c1ccc(NC(=O)c2ccco2)cc1
 : -0.2% | ? | 1e-09 | i | i
Cc1cc2oc(=O)c3c(c2cc1OCc1nn[nH]n1)CCCC3
 : 1.4% | 11.3% | 1e-09 | i | i
CN1CCN(S(=O)(=O)c2cccc(C(=O)NC3CCCc4ccccc43)c2)CC1 (configuration not stated)
 : 0.0% | ? | 5.27e-08 | i | i
C=CCN1C(=O)CN=C1Nc1cc(C)ccc1C
 : -0.3% | 0.8% | 4.1e-08 | i | i
CN(C)CC[C@@H](C(=O)C(C)(C)C)c1ccccn1
 : 1.7%[11.5 µM] | -6.1%[11.4 µM] | 5.2e-09 | i | i
Cc1cccc(N2CCN(C(=O)COc3cc(=O)n(C)c4ccccc34)CC2C)c1 (configuration not stated)
 : -1.8% | 3.2%[11.4 µM] | 1e-09 | i | i
CC(CN1CCN(C)CC1)OC(=O)c1ccc(Cl)cc1 (configuration not stated)
 : -0.7% | ? | 1.9e-08 | i | i
Cc1ccc(C(=O)CSC2=NC(N)=C(C#N)C3(CCCCC3)C2C(N)=O)cc1 (configuration not stated)
 : 1.5% | 2.0%[11.4 µM] | . | . | .
Cc1nc2c3cnn(-c4ccc(C)c(C)c4)c3ncn2n1
 : -0.1% | 3.4% | 1e-09 | i | i
CC1CCCC(NC(=O)CC2Nc3ccccc3NC2=O)C1C (configuration not stated)
 : -0.1% | -4.0% | 4.8e-09 | i | i
CCC(=O)N1CCc2cc(OC)c(OC)cc2C1COc1ccc(C(=O)OC)cc1 (configuration not stated)
 : 3.1% | ? | 4.3e-09 | i | i
CCOC(=O)C1CCCN(C(=O)Cn2nc(Cc3cccnc3)c3ccccc3c2=O)C1 (configuration not stated)
 : -0.4% | -3.8% | . | . | .
CCOC(=O)c1cnc(SCC(=O)Nc2cc(OC)cc(OC)c2)nc1N
 : -0.1% | ? | 3.02e-08 | i | i
Cn1nnnc1SCc1c(F)cccc1F
 : -0.9% | -3.1% | 2.83e-08 | i | i
COC(=O)c1ccc(CSc2nc3c(c(=O)n2-c2ccc(C)cc2)SCC3)o1
 : 3.3% | -5.8% | . | . | .
COc1ccccc1N1CCN(C(=O)C2CCC(Cn3c(=S)[nH]c4ccccc4c3=O)CC2)CC1 (configuration not stated)
 : -0.7% | -5.5% | 1.95e-08 | i | i
Fc1cccc(Cl)c1Cn1nnc2c(NCc3ccccn3)ncnc21
 : 2.8% | ? | 6.33e-08 | i | i
COC(=O)[C@@]1(Cc2ccc(F)cc2)[C@H]2c3cc(C(=O)N4CCCC4)n(CCc4c[nH]c5ccc(OC)cc45)c3C[C@H]2CN1C(=O)c1ccccc1
 : -2.2% | 0.9% | . | . | .
Cc1nc(SCC(=O)NCc2ccco2)nc(C)c1C
 : 1.4% | 3.8% | 5.8e-08 | i | i
CCCC(=O)Nc1sc(C(=O)OC)c(C)c1C(N)=O
 : -1.4% | 1.3% | 9.4e-09 | i | i
C(=C\c1ccccc1)/CSc1nnc(-c2cnccn2)n1Cc1ccco1
 : 0.0% | ? | 2.03e-08 | i | i
COc1ccc(OC)c(CNc2nc3ccccc3n2CCN2CCCCC2)c1
 : 4.0% | 16.2% | 1e-09 | i | i
CCOC(=O)COc1cc(=O)n(CC)c2ccccc12
 : 0.8% | 14.3% | 6e-09 | i | i
FC(F)(F)c1cccc(N2CCN(c3nnnn3-c3ccccc3)CC2)c1
 : -1.7% | ? | 7.2e-09 | i | i

Compound activity as filed in PubChem.
